Screening results from PubChem BioAssay.
S aureus helic = S. aureus DNA helicase inhibition. inhibition, %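 (tested at about 80 µM)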. hit rate 0.05% among 120,000. purified S. aureus helicase, fluorescence unwinding assay; about half of the hits fall short of the stated cut. AID 485395;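 active = both duplicates at 50% or more, or one of them with a favoured structure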;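 also: 0% = mean of negative control wells and 100% = mean of positive control wells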
MgrA-DNA mod = S. aureus MgrA-DNA binding modulation | fluorescence polarization | inhibition, %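 (about 10 µg/mL by stock and volumes)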 | hit rate 0.13% among 84,000 | AID 602314;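 active = above 50% in either of two replicates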;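 also: 0% = protein plus DNA without compound and 100% = DNA alone without protein; higher means less MgrA bound to DNA so lower polarization; one replicate is shown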
An asterisk follows results filed as active; . = not tested or not shown.

Values in the order: S aureus helic	MgrA-DNA mod
> COc1ccc2c(c1)CC/C(=C\c1cccn1C)C2=O
 : -4.0	.
> CS(=O)(=O)N(CC(=O)NC12CC3CC(CC(C3)C1)C2)c1ccc2c(c1)OCO2
 : 3.0	-0.9
> CC(=O)OC[C@H]1O[C@@H](n2ccc(=O)[nH]c2=S)C(OC(C)=O)C1OC(C)=O (stereo partly specified)
 : -9.0	.
> OC(CNCc1ccccc1)c1ccccc1 (stereo unspecified)
 : .	-3.2
> CC(=O)Oc1ccc2c(c1)cc(C)n2C
 : 5.0	.
> CN(Cc1ccccc1)C(=O)COc1ccc(Br)cc1
 : -5.0	.
> N#CCCn1c(=O)[nH]c(=O)n(CCC#N)c1=O
 : 3.0	0.4
> COc1cc(/C=C2/NC(=S)NC2=O)ccc1OCc1ccc([N+](=O)[O-])cc1
 : .	1.1
> C=CCN(CC=C)C(=O)CSc1nc(-c2ccccc2)cn1N
 : 10.0	.
> COc1cc(/C=N/NS(=O)(=O)c2cc(C)ccc2C)cc(OC)c1O
 : -5.0	.
> CC(=O)Nc1cccc(/C(C)=N/NC(=S)NCC2CCCO2)c1 (stereo unspecified)
 : 13.0	.
> c1cc(CNc2ccc3c(c2)CCC3)ccn1
 : 6.0	-1.6
> COc1cc(NC(=O)CN2CCN(C3c4ccccc4-c4ccccc43)CC2)cc(OC)c1
 : 2.0	.
> Cc1cc(C)cc(OCc2nc3cc(S(=O)(=O)N4CCOCC4)ccc3n2CC2CCCO2)c1 (stereo unspecified)
 : -15.0	.
> O=C(O)CCCC(=O)N1N=C(c2ccc(Br)cc2)CC1c1cccc([N+](=O)[O-])c1 (stereo unspecified)
 : .	-1.2
> CCCn1cnc2c1c(=O)n(C)c(=O)n2C
 : 6.0	-1.4
> CCCn1c(SCC(=O)N2c3ccccc3Sc3ccccc32)nc2ccccc21
 : 12.0	1.2
> COc1ccc(-c2csc(-c3c(C)noc3N(C(C)=O)C(C)=O)n2)cc1
 : .	16.1
> COc1ccc(N2CCN(/C(=N/S(=O)(=O)c3ccccc3)Nc3nc(C)cc(C)n3)CC2)cc1
 : 6.0	0.1
> CC1=C(C(=O)OC(C)C)C(c2ccccc2)NC(=O)N1C (stereo unspecified)
 : -15.0	2.2
> O=C(O)C1C2CC3CC(C2)CC1C3 (stereo unspecified)
 : 4.0	.
> O=C(NC1CCN(C(=O)c2c(Cl)cccc2Cl)CC1)C1CCCCC1
 : .	1.8
> CCCCS(=O)(=O)N(O)c1ccc(Cl)cc1
 : -8.0	-9.5
> COc1ccc(N2C(=O)CSC(c3ccccc3)C2=O)cc1 (stereo unspecified)
 : .	0.3
> NC(=O)c1ccc2[nH]c3c(c2c1)CCCC3
 : 13.0	2.5
> Cc1cc2cc3c(cc2nc1SCC(=O)N1CCCC1)OCCO3
 : 1.0	0.0
> CC(=O)N=C1SC2CS(=O)(=O)CC2N1Cc1ccccc1Cl (stereo unspecified)
 : -20.0	.
> N#CCCN(Cc1ccccc1)C(=S)Nc1ccccc1
 : 5.0	0.5
> O=C(c1cc2ccccc2o1)N(c1ccccn1)c1ccccn1
 : 3.0	-1.2
> N#CC1(Nc2ccccc2Cl)C(=O)Nc2ccccc21 (stereo unspecified)
 : 8.0	-2.1
> O=C(NCCc1ccccc1)c1ccc2c(c1)N(Cc1ccccc1)CCS2
 : 4.0	-1.5
> CC(=O)Nc1ccc(NC(=O)c2ccc(-c3cccc(C(F)(F)F)c3)o2)cc1
 : 6.0	.
> COc1ccc2nc(N3CCC(C(=O)N4CCN(c5ccccn5)CC4)CC3)sc2c1
 : 4.0	.
> NC(=O)c1ccccc1NC(=O)Nc1ccccc1
 : 3.0	1.8
> O=C(Cc1ccccc1)OCC1CCCN2CCCCC12 (stereo unspecified)
 : 4.0	-6.8
> Cc1c(C(=O)O)oc2ccc(S(=O)(=O)NC3CCCCC3C)cc12 (stereo unspecified)
 : 8.0	-2.1
> COCCn1cc(C(=O)NCCCN2CCC(C)CC2)c2c3ccccc3n(C)c2c1=O
 : -30.0	.
> Cc1cc(C)nc(Nc2n[nH]c(C)n2)n1
 : -16.0	.
> COc1ccc(CN2CNc3c(c(C)nn3-c3ccccc3)C2)cc1
 : 1.0	0.3
> CCC(C)Sc1nc2ccccc2[nH]1 (stereo unspecified)
 : 8.0	.
> CCCN(CC(=O)N1CCc2ccccc21)S(=O)(=O)c1cccc(C(F)(F)F)c1
 : 7.0	.
> Cc1[nH]c2ccccc2c1C(c1cccs1)N1CCCC1 (stereo unspecified)
 : -25.0	.
> COc1cccc(CC(C#N)c2c(C#N)c(N)nc(N3CCOCC3)c2C#N)c1 (stereo unspecified)
 : -17.0	.
> Cn1c(=NC(=O)c2ccc(Cl)s2)sc2cc(S(C)(=O)=O)ccc21
 : 7.0	.
> COC(=O)CC1=Nc2ccccc2NC(=O)C1
 : 3.0	1.9
> O=C(Cc1ccccc1F)Nc1cc2c(cc1Br)OCCO2
 : -10.0	.
> Cc1cc(C(=O)Cn2cnc3sccc3c2=O)c(C)n1CC1COc2ccccc2O1 (stereo unspecified)
 : 4.0	.
> CCC(Sc1nc2ccccc2c2nc3ccccc3n12)C(=O)N1CCOCC1 (stereo unspecified)
 : -3.0	2.2
> Clc1ccc(Sc2ncccn2)cc1
 : 21.0	1.3
> O=C(Cn1cccc1)Nc1cccc(F)c1
 : 13.0	0.8
> N#Cc1ccc(C=Nc2cc(Cl)c(N)cc2Cl)cc1
 : -6.0	0.2
> CC1Cc2ccccc2N1C(=O)COC(=O)c1n[nH]c2ccccc12 (stereo unspecified)
 : 1.0	-1.9
> COc1cccc(NC(=O)c2ccccc2N(C)C(=O)CCC(=O)N2CCC(C)CC2)c1
 : -12.0	.
> COc1ccc2nnnn2n1
 : 1.0	.
> COc1ccc(C(=O)n2nc(C)cc2Nc2ccccc2)cc1
 : -9.0	.
> O=c1c2c3c(sc2nc(NCCO)n1-c1ccccc1)CCCC3
 : 18.0	-2.2
> COc1ccccc1C(=O)NC(=O)CSc1cccc[n+]1[O-]
 : 12.0	.
> COc1cccc(NC(=O)N(Cc2ccc(C)cc2)Cc2cccn2-c2nnc(N3CCCC3=O)s2)c1
 : -24.0	.
> CCc1ccc2[nH]c(C(=O)NCCN3CCOCC3)cc2c1
 : .	-0.9
> Cc1ccc(S(=O)(=O)CCC(=O)OCc2cccc(S(=O)(=O)N3CCOCC3)c2)cc1
 : 7.0	.

Next part:
Values in the order: S aureus helic	MgrA-DNA mod
> Clc1nc2ccccc2c(N2CCCCC2)c1CNCc1ccco1
 : 19.0	-1.0
> CCOC(=O)c1oc2cc3sc(N4CCCCC4)nc3cc2c1C
 : 9.0	0.1
> O=C(CSC1=NCCN1)NC1CCCCCC1
 : 6.0	3.4
> N#CSCC(=O)C12CC3CC(CC(C3)C1)C2
 : 28.0	3.5
> CNC(=O)COc1coc(CN2c3ccccc3CC2C)cc1=O (stereo unspecified)
 : 10.0	.
> CCOC(=O)c1cccnc1SC(CC)C(=O)NCc1ccco1 (stereo unspecified)
 : 4.0	.
> CC1Cn2c(nnc2-c2ccccc2O)S1 (stereo unspecified)
 : -12.0	.
> CN(C1CCCCC1)S(=O)(=O)c1ccc(S(=O)(=O)N(Cc2cccs2)CC2CCCO2)cc1 (stereo unspecified)
 : 6.0	0.7
> Cc1cc(C(=O)OCc2cc(Cl)cc3c2OCOC3)c2ccccc2n1
 : 7.0	.
> CCN(CC)c1ccc(NC(=O)C2(c3ccccc3)CC2)cc1
 : 2.0	.
> N#CC1=C(SCC(=O)Nc2ccc(Br)cc2)NC(=O)CC1c1ccccc1Cl (stereo unspecified)
 : .	-0.3
> Nc1c(-c2ccccc2)c(CN2CCOCC2)nn1-c1ccc(F)cc1
 : 0.0	-2.2
> Cc1cc(Cl)cc2c(=O)c(C(=O)O)c[nH]c12
 : .	0.7
> Nc1ncnc(Nc2nc(-c3ccccc3)cs2)n1
 : .	-1.9
> CCS(=O)(=O)CCSc1nc2c(cc1C#N)CCCC2
 : 9.0	.
> CC1CN(C(=O)c2ccccc2)OC(c2cccc(O)c2)O1 (stereo unspecified)
 : 5.0	-2.1
> O=C(O)COc1ccc(Br)cc1
 : 26.0	0.0
> COc1ccc(Br)c(C(=O)Nn2c(-c3ccc(F)cc3)nc3ccccc3c2=O)c1
 : .	-6.9
> Cc1ccccc1Nc1nc(N)nc(COC(=O)COc2ccc(C#N)cc2)n1
 : -1.0	.
> O=C(CN1CCN(S(=O)(=O)/C=C/c2ccccc2)CC1)NC1CCCc2ccccc21 (stereo unspecified)
 : 5.0	.
> Cc1ccc2c(c1)N(C(=O)n1ccnc1)CC(C)O2 (stereo unspecified)
 : 6.0	3.3
> O=C(CSc1ccc(C(F)(F)F)cn1)Nc1cccc2nsnc12
 : .	-2.4
> CC(=O)Nc1c(C(=O)N2CCCCCC2)cnn1-c1ccccc1
 : 4.0	1.7
> Cc1c(C(=O)O)sc2nc3n(c(=O)c12)CCC3
 : -8.0	1.9
> CC(=O)Nc1cc(C(=O)N2CCN(c3cc(Cl)ccc3C)CC2)ccc1Sc1ccc(F)cc1
 : 6.0	-1.6
> CC1=NN(c2ccc(Br)cc2)C(=O)/C1=C/c1ccc(-c2ccc3c(c2)C(=O)OC3)o1
 : .	-1.3
> CC(C)c1ccc(NC(=O)C2CC(=O)NC(N3CCN(c4ccccn4)CC3)=N2)cc1 (stereo unspecified)
 : 7.0	-2.2
> Cc1c(NC(=S)NCCCN2CCOCC2)c(=O)n(-c2ccccc2)n1C
 : 4.0	.
> NC(=O)COC(=O)c1ccc2c(c1)C(=O)N(Cc1ccco1)C2=O
 : 6.0	.
> CCN(Cc1ccccc1)C1CCN(Cc2ccc(SC)cc2)CC1
 : 4.0	.

No new results follow: 4 of the compounds above.
Values in the order: S aureus helic	MgrA-DNA mod
> CC(C)c1ccc(NC(=O)C2CC(=O)NC(N3CCN(c4ccccn4)CC3)=N2)cc1 (stereo unspecified)
 : 7.0	-2.2
> Cc1c(NC(=S)NCCCN2CCOCC2)c(=O)n(-c2ccccc2)n1C
 : 4.0	.
> NC(=O)COC(=O)c1ccc2c(c1)C(=O)N(Cc1ccco1)C2=O
 : 6.0	.
> CCN(Cc1ccccc1)C1CCN(Cc2ccc(SC)cc2)CC1
 : 4.0	.

(cont.)
Values in the order: S aureus helic	MgrA-DNA mod
> CCCCn1c(N)c(N2CCOCC2)c(=O)n(CC(=O)NCCc2ccccc2)c1=O
 : -7.0	.
> N#CCC(=O)Nc1cccc(Cl)c1Cl
 : -19.0	.
> CC(=O)Nc1ccc(N2C(=O)CSC2c2ccc(Br)cc2)cc1 (stereo unspecified)
 : .	-0.1
> CSc1nc(N)n(-c2c(Cl)cc(Cl)cc2Cl)n1
 : .	1.0
> c1coc([C@H]2Nc3ccccc3[C@H]3OCC[C@@H]23)c1
 : 8.0	0.1
> CCCCCOc1ccc(C2N=C(N)Nc3nc4ccccc4n32)cc1 (stereo unspecified)
 : -10.0	.
> COc1ccc(C2C(C(=O)Nc3ccccn3)c3ccccc3C(=O)N2C2CCCCC2)cc1 (stereo unspecified)
 : 8.0	.
> CCCN1C(=O)S/C(=C\C(=O)O)C1=O
 : 8.0	.
> Cc1ccc(-n2ncc3c(NNC(=O)c4ccco4)ncnc32)c(C)c1
 : 3.0	.
> O=C(NCCCN1CCCC1=O)c1ccc(Cn2c(SCc3ccccc3)nc3ccncc32)cc1
 : 1.0	-1.3
> CCC(=O)N(c1nnc(SCC(=O)N2CCC(c3ccccc3)=N2)s1)C1CC1
 : 21.0	.
> CN(C)S(=O)(=O)c1ccc2c(c1)C(=C(C#N)C#N)c1cc(S(=O)(=O)N(C)C)ccc1-2
 : 2.0	2.9
> Cc1ccc(N2CCN(CC(=O)Nc3c(C(=O)C4CC4)oc4ccccc34)CC2)cc1
 : -8.0	.
> CCCN(c1ccc(C)cc1)c1nc(=O)c2cccnc2s1
 : .	0.8
> Cc1ccc(-c2c(C#N)c(SCC(=O)c3cc4ccccc4oc3=O)nc(C)c2C(=O)Nc2ccccc2C)o1
 : -7.0	.
> O=S(=O)(CCc1ccccc1)N1CCOCC1
 : 18.0	.
> COc1cccc(NC(=O)c2ccccc2S(C)(=O)=O)c1
 : 7.0	.
> CCn1c(C(=O)N2CCC(C(=O)N3CCCCC3)CC2)cc2sccc21
 : 14.0	1.4
> COc1cc(NC(=O)CCN2CCOCC2)cc(OC)c1
 : -1.0	2.6
> CCCCN(C)c1ccc(C(=O)OC)cc1NC(=S)Nc1cccc(C)c1
 : 16.0	1.1
> O=C(C/C(=C1/Cc2ccccc2C1=O)c1ccccc1)c1ccccc1
 : .	1.1
> O=C(O)CC(=O)Oc1ccc(Cl)cc1
 : .	-4.5
> CC1CCCCN1C(=O)Cn1c(=O)n(CCCS(=O)(=O)C2CCCCC2)c(=O)c2ccccc21 (stereo unspecified)
 : 6.0	.
> Clc1cccc(Nc2nnc(-c3ccc(Br)cc3)o2)c1
 : -5.0	.
> COc1ccc(C2=N/C(=C\c3coc4c(Cl)cc(Cl)cc4c3=O)C(=O)O2)cc1[N+](=O)[O-]
 : .	-2.3
> CCN(CCS(=O)(=O)c1ccc(C)cc1)S(=O)(=O)c1ccccc1
 : .	-2.0
> O=C(O)C1CC=CCC1C(=O)N1CCN(C/C=C/c2ccccc2)CC1 (stereo unspecified)
 : 2.0	0.5
> CCOC(=O)c1sc2nc(C)cc(C)c2c1NC(=O)Nc1ccc(Cl)cc1
 : .	-3.0
> Cn1c(O)c(C=Nc2cccc(CO)c2)c2ccccc21
 : 11.0	3.5
> CCOc1ccc(C(=O)CCc2nc3ccccc3s2)cc1
 : 11.0	-2.2
> CCOC(=O)c1cn(Cc2cccc(Cl)c2)c2cc(C)nn2c1=O
 : .	1.7
> c1ccc(CCNc2nc3ccccc3n3cnnc23)cc1
 : 12.0	7.3
> Cc1cc(=S)cc(C)n1CCCn1ccnc1
 : -11.0	.
> COc1ccc(C(C)(C)C)cc1NC(=O)COC(=O)CC1CCCC1
 : -17.0	2.5
> C/C(=N\NS(C)(=O)=O)c1ccc(Br)cc1
 : 14.0	-0.2
> Cc1cc(N2CCN(C)CC2)nc2ccc(NC(=O)NCc3ccc(F)cc3)cc12
 : 17.0	.

The list is partial. The share of hits here may be higher or lower than overall.
